PV pol inh – poliovirus RNA polymerase inhibition | P03300 | poliovirus polymerase elongation, fluorescence polarization; active compounds read low | % elongation, % (compound at 16.7 µg/mL) | 150,000 tested, 0.66% active; in the data active = % elongation below about 90%; also: some results filed as inactive read as strong as hits
Target sequence (P03300 1749-2209 limits assumed): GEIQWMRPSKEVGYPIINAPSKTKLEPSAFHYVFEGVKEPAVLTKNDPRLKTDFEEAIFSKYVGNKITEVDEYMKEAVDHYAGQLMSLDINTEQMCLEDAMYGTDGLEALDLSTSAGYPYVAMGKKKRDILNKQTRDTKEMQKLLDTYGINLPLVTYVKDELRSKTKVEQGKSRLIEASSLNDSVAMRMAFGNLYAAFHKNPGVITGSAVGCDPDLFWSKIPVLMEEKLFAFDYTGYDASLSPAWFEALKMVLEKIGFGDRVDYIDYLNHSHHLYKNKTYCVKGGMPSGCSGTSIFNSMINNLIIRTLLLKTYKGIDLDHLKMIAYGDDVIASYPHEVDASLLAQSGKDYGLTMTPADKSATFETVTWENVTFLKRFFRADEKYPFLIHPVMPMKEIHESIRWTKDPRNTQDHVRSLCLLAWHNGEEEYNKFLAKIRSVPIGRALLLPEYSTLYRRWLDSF
PV pol inh intensity – also measured in PV pol inh; calls as there; % elongation; measured here: total intensity read-out; formula for this scale not given here;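 total fluorescence in place of polarization; lower means less elongation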
* hit, by the source's call.

Screens in order: PV pol inh	PV pol inh intensity
1. Cc1ccc(NC(=O)CCn2cccn2)c(C)c1
  106	111
2. O=C(NCCc1csc(-c2cccc(F)c2)n1)c1ccc(Br)o1
  101	109
3. CCOC(=O)c1cc(-c2ccccc2)n(CC(=O)NCc2ccccc2OC)c1C
  104	107
4. Cn1c(=O)c2sccc2n2c(CCCC(=O)Nc3ccc(Oc4ccc(Cl)cc4)cc3)nnc12
  119	117
5. Cc1ccc(Cl)cc1N1CCN(C(=O)C2CCN(S(=O)(=O)Cc3ccccc3)CC2)CC1
  106	109
6. CCn1cc(C(=O)NCCCOC(C)C)c(=O)c2cc(S(=O)(=O)N3CCc4ccccc4C3)ccc21
  112	111
7. CC(C)(C)c1ccc(OCc2nnc(-c3ccccc3)o2)cc1
  108	109
8. COc1ccc(OC)c(CNC(=O)Cn2nc(C)c3nn(-c4ccc(Cl)cc4)c(C)c3c2=O)c1
  117	111
9. CC1CCN(C(=O)CSc2nc3ccccc3nc2Cc2ccccc2)CC1
  110	114
10. COc1ccc2c(Sc3ccccc3)c(C(=O)NCCc3ccc(Cl)cc3)[nH]c2c1
  106	95
11. CC(C)Oc1ccc(CNC(=O)c2ccc3c(c2)N(Cc2ccc(F)cc2)CCS3)cc1
  110	110
12. O=C(Cn1cnc2c(oc3ccccc32)c1=O)Nc1ccc(F)cc1F
  103	96
13. Cc1ccc(Cc2c(C)nn(-c3nc(C)c(C(=O)N4CCCCC4C)s3)c2C)cc1 (stereo not given)
  109	111
14. Cc1ccc(NC(=O)N2CCC(CN3CCCCC3)CC2)c(Cl)c1
  110	115
15. COc1cccc(CNC(=O)CSc2nc3ccccc3nc2Cc2ccc(C)cc2)c1OC
  110	115
16. CCc1ccccc1NC(=O)CSc1nnc(-c2ccc(OC)cc2)s1
  108	112
17. Cc1ccc(-n2ncc3c(NCc4ccccc4)ncnc32)cc1C
  103	105
18. Cc1ccc2nc(NC(=O)COc3ccc(F)cc3)sc2c1
  102	113
19. COc1cccc(Cn2cc(C(=O)c3ccc(Cl)cc3)c(=O)c3ccccc32)c1
  111	113
20. CCOc1ccc(N(Cc2ccccc2)C(=O)c2nc(SC)ncc2Cl)cc1
  113	112
21. Fc1ccccc1N1CCN(Cc2nnc(-c3ccc4c(c3)OCO4)o2)CC1
  109	113
22. CC(=O)N1CCc2c(sc3c2c(=O)n(CCc2ccccc2)c(=O)n3Cc2cccc(C)c2)C1
  101	106
23. N#Cc1cccc(NC(=O)c2ccc3c(c2)N(Cc2cccc(Cl)c2)C(=O)c2ccccc2S3(=O)=O)c1
  102	105
24. CCc1cccc(CC)c1NS(=O)(=O)c1ccc2c(c1)CCN2C(=O)C1CC1
  112	112
25. Cc1cc(S(=O)(=O)Nc2cccc(-c3ccc(N4CCOCC4)nn3)c2)c(C)cc1Cl
  105	102
26. COC(=O)c1cc2c(cc1NC(=O)c1cnn(-c3ccccc3)c1-n1cccc1)OCO2
  100	104
27. O=C(Nc1ccccc1C(F)(F)F)c1ncoc1-c1ccco1
  113	113
28. COCCc1nn2c(=O)cc(COC(=O)c3ccco3)nc2s1
  106	110
29. O=C(C1CCC(CNS(=O)(=O)c2cccs2)CC1)N1CCN(c2ccc(Cl)cc2)CC1 (stereo not given)
  99	98
30. CCCC(CCC)C(=O)NC1CC(=O)N(c2ccc3c(c2)OCCO3)C1 (stereo not given)
  110	96

Compound profiles, as listed above:
Entry for O=C(NCCc1csc(-c2cccc(F)c2)n1)c1ccc(Br)o1 → PV pol inh = 101; PV pol inh intensity = 109
Entry for N#Cc1cccc(NC(=O)c2ccc3c(c2)N(Cc2cccc(Cl)c2)C(=O)c2ccccc2S3(=O)=O)c1 → PV pol inh = 102; PV pol inh intensity = 105
Entry for O=C(Cn1cnc2c(oc3ccccc32)c1=O)Nc1ccc(F)cc1F → PV pol inh = 103; PV pol inh intensity = 96

Next entries:
Screens in order: PV pol inh	PV pol inh intensity
31. CC(=O)c1ccc(NC(=O)CC2Sc3ccccc3NC2=O)cc1 (stereo not given)
  106	107
32. COc1cccc(C(=O)Nc2ccc3nc(SCC(=O)N(C)c4ccccc4)sc3c2)c1
  103	105
33. CCOc1ccc(CNC(=O)c2oc3c(c2C)-c2nn(Cc4cccc(Cl)c4)cc2CC3)cc1
  108	102
34. O=C(CSc1oc(-c2ccccc2)nc1S(=O)(=O)c1ccc(Br)cc1)NC1CCCCC1
  102	105
35. Cc1cc(-c2ccc(C)c(S(=O)(=O)N3CCC(C)CC3)c2)on1
  102	96
36. CCC(=O)N1CCc2cc(S(=O)(=O)NC(Cc3ccccc3)C(=O)NCc3cccc(OC)c3)ccc21 (stereo not given)
  103	107
37. COc1ccc(OC)c(C2CC(=O)Nc3c2c(=O)n(C)c2ncnn32)c1 (stereo not given)
  104	104
38. COCCNC(=O)Cn1c(=O)n(Cc2ccc(C(=O)NCCc3ccc(OC)c(OC)c3)cc2)c(=O)c2ccccc21
  107	108
39. CCn1c(=N)c(C(=O)NC2CCCCC2)cc2c(=O)n3cccc(C)c3nc21
  109	108
40. COc1ccc(C(=O)N2c3ccccc3C(C)(c3ccc(Cl)cc3)CC2(C)C)cc1 (stereo not given)
  107	110
41. CCOC(=O)c1cc(-c2ccccc2)n(CCC(=O)Nc2ccc(C)cc2Cl)c1C
  100	85
42. CCOCc1cc(CN2CCN(c3cccc(C(F)(F)F)c3)CC2)c(O)c2ncccc12
  123	133
43. Cc1nc2ccn(Cc3cccnc3)c(=O)c2cc1C(=O)NCc1ccc(Cl)cc1
  108	108
44. Cc1c(NC(=O)c2cc([N+](=O)[O-])ccc2N2CCOCC2)cccc1-c1nc2ccccc2o1
  108	109
45. Cc1csc2nc(-c3ccc(NS(=O)(=O)c4cc(F)ccc4F)cc3)cn12
  103	106
46. Cc1ccccc1NC(=O)N1CCc2cc(S(=O)(=O)N3CCC(C)CC3)ccc21
  109	109
47. COCCCNC(=O)c1sc2ncccc2c1-n1cccc1
  107	113
48. CCOCCCNC(=O)NC(C)c1c(-n2cccc2)sc2c1CCN(CC)C2 (stereo not given)
  105	118
49. COc1ccc(CNC(=O)c2ccc(CN3C(=O)C(C)=C(c4ccc(C)cc4)S3(=O)=O)cc2)cc1
  110	108
50. COc1ccc(C)c2sc(N(Cc3cccnc3)C(C)=O)nc12
  105	104
51. O=c1c2nncn2ccn1-c1ccc(F)c(F)c1
  107	128
52. Cc1cccc(CSc2nnc(CCCCCN)o2)c1
  101	102
53. Cn1c(SCc2ccc(F)cc2)nc2ccc(C(=O)NCc3ccccc3)cc21
  106	106
54. COC(=O)c1ccc(NC(=O)c2c(NCc3ccc(OC)c(OC)c3)sc3c2CCCC3)cc1
  110	117
55. O=C(Nc1c(Cl)cccc1Cl)c1cccc2c1C(=O)N(C1CCCCC1)C2
  113	113
56. Cc1ccc(NC(=O)CSc2nc3ccccc3nc2N2CCOCC2)cc1
  110	112
57. COc1cc(NC(=O)CN2C(=O)C(c3ccc(Cl)cc3)=NC23CCCCC3)cc(OC)c1
  103	104
58. Cc1cccc(-c2noc(-c3ccc(NCc4ccco4)c([N+](=O)[O-])c3)n2)c1
  103	111
59. O=C(Nc1ccc(F)cc1)[C@H](Cc1ccccc1)N1Cc2ccccc2C1=O
  106	111
60. CCOc1ccc(C(=O)Nc2cc(-c3ccccc3)no2)cc1
  109	113
61. Cc1cccc(N(C)C(=O)CCS(=O)(=O)c2ccc3c(c2)n(C)c(=O)c(=O)n3C)c1
  103	104
62. CCOC(=O)C1CCN(C(c2ccc(OCC)cc2)c2c(O)cc(C)n(CCOC)c2=O)CC1 (stereo not given)
  105	107
63. Cc1ccc(C(=O)COC(=O)c2cccc(NC(=O)c3ccc(Cl)cc3Cl)c2)cc1
  109	115
64. Cc1cccc(/C=C/c2onc(C)c2S(=O)(=O)N2CCC(C(=O)N3CCCCC3)CC2)c1
  107	109
65. O=C1C(=O)N(C2CCN(C(=O)c3ccc(F)cc3)CC2)CCN1Cc1ccc(F)cc1
  106	104
66. O=C(NCCOCCn1c(=O)oc2ccccc21)Nc1cccc(Cl)c1
  105	104
67. COc1ccc(CC(=O)NCc2nc3cccnc3n2Cc2ccc(F)cc2)cc1OC
  107	112
68. Cc1ccc(C)c(N2CCN(c3nccn4nc(-c5ccc(Br)cc5)cc34)CC2)c1
  102	96
69. CC(C)Cn1cc(NC(=O)NCc2ccc(Cl)cc2)c2ccccc2c1=O
  106	100
70. Cc1ccc(C)c(NC(=O)c2ccc3c(O)c(S(=O)(=O)c4ccc(Cl)cc4)c(=O)[nH]c3c2)c1
  97	104
71. COc1ccccc1NC(=O)c1c(NCc2ccc(OC)c(OC)c2OC)sc2c1CCCC2
  104	115
72. Cc1cc(C)cc(NC(=O)c2ccc3c(O)c(S(=O)(=O)c4ccccc4)c(=O)[nH]c3c2)c1
  100	107
73. COCCNC(=O)CCn1c(=O)c2cc(OC)c(OC)cc2n(CC(=O)Nc2ccccc2C)c1=O
  102	105
74. CCC(CC)C(=O)Nc1ccccc1C(=O)OCc1cc(=O)n2nc(C3CCCCC3)sc2n1
  100	104
75. CN(C)c1ccc(NC(=O)CSC2=Nc3ccccc3C3=NC(CC(=O)NCc4ccc5c(c4)OCO5)C(=O)N23)cc1 (stereo not given)
  106	103
76. COc1cccc(Oc2nc3c(c(=O)n(Cc4ccccc4F)c(=O)n3C)n2C)c1
  108	113
77. Cn1c(=O)c2c(nc(Oc3ccc(F)cc3)n2Cc2ccc(F)cc2)n(C)c1=O
  101	110
78. CCn1cc2c(n1)-c1c(oc(C(=O)Nc3ccc(Br)cc3F)c1C)CC2
  53*	66*
79. COc1ccc(CNC(=O)C2CCN(Cc3nc(-c4ccc(Cl)cc4)oc3C)CC2)cc1
  107	110
80. Cc1ccccc1NC(=O)CSc1nc2ccc(NC(=O)COc3ccccc3F)cc2s1
  104	111
81. CC(=O)c1cc(-c2ccccc2)n(CC(=O)NCc2ccccc2C)c1C
  104	106
82. CC(=O)C(Sc1nc(-c2ccccc2Cl)nc2c1c(=O)n(C)c(=O)n2C)C(=O)N(C)C (stereo not given)
  102	111
83. CCOc1ccccc1CNC(=O)c1oc2ccc3c(c2c1C)C(=O)CC(C)(C)O3
  115	118
84. COc1ccc(C2Sc3ccccc3NC3=C2C(=O)c2ccccc23)c(OC)c1OC (stereo not given)
  111	113
85. Cc1cn(C)c(CC(=O)NCc2cccc(Cl)c2)c1C(=O)O
  100	106
86. O=C(COc1ccccc1)Nc1c(Cl)ccc2nsnc12
  105	103
87. CN(C)c1ccc(CNC(=O)C2CCN(S(=O)(=O)c3ccc4c(c3)oc(=O)n4C)CC2)cc1
  106	108
88. O=C(O)CCc1ccc(-c2cccs2)n1CC(=O)Nc1ccccc1C(F)(F)F
  109	93
89. CCOc1ccc(-c2cc3nc(C4CCN(C(=O)OC(C)(C)C)CC4)c(C(=O)Nc4cc(OC)ccc4OC)cn3n2)cc1
  111	113
90. Cc1ccc(C(=O)N2CCc3cc(CNC(=O)c4ccccc4F)ccc32)cc1
  105	108

Going on with the list:
Screens in order: PV pol inh	PV pol inh intensity
91. O=C(NCc1ccco1)C1CCN(C(=O)N2CCOc3ccc(Cl)cc32)CC1
  107	105
92. COc1ccc(CC(=O)NCC(c2ccc(Cl)cc2)N2CCOCC2)cc1 (stereo not given)
  103	104
93. O=C(NCCS(=O)(=O)N1CCN(c2ccccc2F)CC1)c1ccccc1C(F)(F)F
  107	99
94. O=C1CC(c2nnc(Cc3ccc(F)cc3Cl)o2)CN1c1ccccc1 (stereo not given)
  102	98
95. COc1ccc(CNC(=O)c2c(Nc3ccc(OC)cc3OC)sc(C(=O)c3ccc(Cl)cc3)c2N)cc1
  105	112
96. Cc1ccn2c(c1)nc(=O)c1cc(S(=O)(=O)N3CCC(C)CC3)c(Cl)cc12
  107	111
97. COc1ccc(S(=O)(=O)c2c(O)c(C)cc(NC(=O)c3ccccc3)c2C(C)C)cc1
  104	109
98. Cc1ccc(CCNC(=O)c2ccc(NC(=O)N3CC(C)Sc4ccccc43)cc2)cc1 (stereo not given)
  107	109
99. Cc1cccc(NC(=O)C(c2ccccc2)N2Cc3ccccc3C2=O)c1C (stereo not given)
  111	112
100. CCNC(=O)c1cc2n(n1)CCCN(Cc1ccc(C)cc1)C2=O
  109	108
101. Cc1nc(-c2ccc(Cl)cc2)sc1CCNC(=O)Cc1ccc(F)cc1
  102	97
102. CCOC(=O)c1c(NC(=O)c2ccc(OC)c(OC)c2)sc2c1CCCCC2
  100	101
103. CC1=C(c2ccc(C)cc2)S(=O)(=O)N(Cc2ccc(C(=O)NCc3ccccc3)cc2)C1=O
  105	114
104. COc1ccc(S(=O)(=O)NCCSc2nnnn2-c2ccccc2)cc1OC
  100	97
105. Cn1ncc2c(NCc3ccc(F)cc3)ncnc21
  102	109
106. COc1ccccc1CCNC(=O)C1CCN(c2nnc(-n3cccc3CNc3ccc(C)cc3)s2)CC1
  108	112
107. COc1ccc(-c2cc(C(F)(F)F)nc(SCCC(=O)Nc3c(C)cccc3C)n2)cc1
  107	113
108. COc1ccc(C(=O)Nc2nnc(SCc3cc(=O)c4cc(C)ccc4[nH]3)s2)cc1OC
  107	108
109. COc1ccc(N2CCN(S(=O)(=O)CCNC(=O)C(c3ccccc3)c3ccccc3)CC2)cc1
  113	108
110. COc1ccc(NC(=O)C2=CC(c3ccco3)=NS(=O)(=O)N2C)cc1OC
  111	109
111. CCC(C)NC(=O)c1ccc2c(=O)n3c(nc2c1)CCCCC3 (stereo not given)
  105	106
112. Cc1cccc(NC(=O)CSc2nnc(-c3cccs3)o2)c1
  102	101

Exported with bars between the fields: part of the list above
No. | Structure | PV pol inh | PV pol inh intensity
49 | COc1ccc(CNC(=O)c2ccc(CN3C(=O)C(C)=C(c4ccc(C)cc4)S3(=O)=O)cc2)cc1 | 110 | 108
50 | COc1ccc(C)c2sc(N(Cc3cccnc3)C(C)=O)nc12 | 105 | 104
51 | O=c1c2nncn2ccn1-c1ccc(F)c(F)c1 | 107 | 128
52 | Cc1cccc(CSc2nnc(CCCCCN)o2)c1 | 101 | 102
53 | Cn1c(SCc2ccc(F)cc2)nc2ccc(C(=O)NCc3ccccc3)cc21 | 106 | 106

From PubChem

These rows are one share of the data. The share of hits here may be higher or lower than overall.
